Screening data: PubChem BioAssay, several laboratories
Ecoli growth: blocks Escherichia coli growth. OD600, 23 h; hits give low values. OD600 absorbance (concentration not given with the values). 0.21% of 330,000 active;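 active = OD600 absorbance below the run mean of sample wells minus 3.6 SD, in any replicate, cut at about 0.56 in these data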;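 also: stock transfer was 300 nL into about 60 µL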
HNF4A DNA FP: change in binding of human HNF4 alpha to DNA; P41235; HNF4a-FITC DNA binding, fluorescence polarization, 1 h; activity change, % at 10 µM; 0.3% of 360,000 active; AID 1224865; in the data active = activity change above about 30%, passing the limit was not always enough;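 also: controls were the assay level and a saturating level of protein; the project sought stronger binding though the title names inhibitors; some compounds called inactive have numbers as strong as hits; positive values seem to mean higher polarization but the record does not say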
rRNA inh HTS: inhibitors of bacterial rRNA selective over humanized ribosomes | 1.6% of 350,000 active | AID 720706 | GFP signal change (wild-type ribosome), % (test concentration not listed) | E. coli WT GFP vs humanized-ribosome RFP mutants, fluorescence, 24 h; hits give low values; DMSO median 0, no signal -100;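 active = significant combined selectivity score with lowered wild-type GFP, culture density cut under 30%, mutant RFP and density less affected; inactive = any of these conditions unmet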; also: one replicate is shown; some compounds called inactive have numbers as strong as hits
FGF22 binding: shifts melting point of recombinant human FGF22; recombinant FGF22 thermal shift, SYPRO orange fluorescence; percent of sucrose octasulfate shift, DMSO zero; Q9HCT0; calls only at 9.99 µM; 1.5% of 340,000 active;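 active = melting point raised past a set limit in the mean and every replicate; three in four hits are not shown here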
Target sequence (Q9HCT0 whole entry, looked up): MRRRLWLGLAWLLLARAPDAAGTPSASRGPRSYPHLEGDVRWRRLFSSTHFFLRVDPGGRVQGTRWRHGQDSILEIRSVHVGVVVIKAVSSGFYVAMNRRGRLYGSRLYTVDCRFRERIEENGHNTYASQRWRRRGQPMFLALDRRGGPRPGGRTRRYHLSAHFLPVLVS
AF4-AF9 inh: MLL-AF4/AF9 protein interaction inhibition. 0.47% of 350,000 active. P42568. AlphaScreen, biotin-AF4 peptide binding to FLAG-AF9. inhibition, % at 10 µM;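 active = every replicate reaching a set inhibition limit, whatever the replicate mean, cut at about 25% in these data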;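 also: 0% = plate neutral control median and 100% = total signal loss; the record names both 10 and 1 µM as test concentration; the first replicate is given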
Target sequence (P42568 whole entry, looked up): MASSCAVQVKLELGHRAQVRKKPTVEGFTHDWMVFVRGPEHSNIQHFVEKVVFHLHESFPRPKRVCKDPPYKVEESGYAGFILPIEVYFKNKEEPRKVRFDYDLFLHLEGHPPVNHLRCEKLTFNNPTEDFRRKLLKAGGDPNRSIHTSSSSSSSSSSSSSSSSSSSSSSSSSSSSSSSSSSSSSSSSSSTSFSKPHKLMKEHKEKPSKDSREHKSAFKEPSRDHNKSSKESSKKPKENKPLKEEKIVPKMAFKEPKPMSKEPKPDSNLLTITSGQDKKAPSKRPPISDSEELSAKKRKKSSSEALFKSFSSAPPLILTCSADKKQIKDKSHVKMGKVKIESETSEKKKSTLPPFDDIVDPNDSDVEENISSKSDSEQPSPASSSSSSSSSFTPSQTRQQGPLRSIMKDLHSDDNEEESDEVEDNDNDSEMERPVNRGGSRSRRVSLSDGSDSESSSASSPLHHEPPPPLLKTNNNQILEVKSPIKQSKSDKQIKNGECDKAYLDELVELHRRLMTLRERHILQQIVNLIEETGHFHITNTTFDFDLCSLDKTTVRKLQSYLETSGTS
ALR H2O2 inh: human ALR oxidase inhibition via reduced H2O2; inhibition, % (no concentration beside the values); P55789; purified ALR, DTT oxidation, H2O2 HRP-luminol luminescence; 3.8% of 290,000 active;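 active = mean and each replicate at 75% or more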;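 also: stock transfer was 7.5 nL into about 7.5 µL; 0% = neutral wells and 100% = wells with inactivated enzyme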
Target sequence (P55789 whole entry, looked up): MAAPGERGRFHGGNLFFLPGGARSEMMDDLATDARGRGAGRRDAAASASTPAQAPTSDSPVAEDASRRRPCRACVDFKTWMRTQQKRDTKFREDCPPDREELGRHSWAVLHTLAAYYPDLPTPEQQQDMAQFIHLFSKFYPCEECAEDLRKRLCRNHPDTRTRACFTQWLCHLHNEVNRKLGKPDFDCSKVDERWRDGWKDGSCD
Vif TR-FRET: HIV-1 Vif–A3G interaction blockers – biochemical, TR-FRET, GST-Vif 1-94, biotin-A3G peptide, dose response retest, primary screen (AID 1117319); TR-FRET GST-Vif / biotin-A3G peptide binding; higher % means a stronger effect; test concentration not given here; strong numbers were not always called active; inhibition, %; hits with a dose series show IC50 in µM; 0.57% of 260,000 active;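 active = above the screen mean plus three standard deviations and confirmed in dose response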;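 also: Vif residues 1-94 fused to GST binding biotinylated APOBEC3G peptide 110-148; 0% = full assay without inhibitor and 100% = GST in place of GST-Vif; retest series ran down from 100 µM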
rRNA inh HTS OD600: recorded beside rRNA inh HTS, whose call it bears; OD600 change, %; measured here: OD600 growth;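 optical density of the mix in the first replicate; 0 = DMSO median and -100 = no signal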
rRNA inh HTS RFP: also measured in rRNA inh HTS; calls as there; RFP signal change, %; measured here: RFP humanized mutant strains;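 first replicate; 0 = DMSO median and -100 = no signal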
* marks the source's active call; other numbers are inactive results; i = inactive; / = not tested or not shown. Not all compounds are listed; rates above refer to the full screens.

#	Structure	HNF4A DNA FP	rRNA inh HTS RFP	rRNA inh HTS	Ecoli growth	ALR H2O2 inh	AF4-AF9 inh	Vif TR-FRET	rRNA inh HTS OD600	FGF22 binding
1	COc1ccc(CCNS(=O)(=O)c2cn(C)c(=O)n(C)c2=O)cc1OC	-2.5	-2.2	7.2	0.672	-1.8	-5.3	1.0%	13.6	i
2	COc1cccc(-c2nc3sc4c(c3c(=O)[nH]2)CCCCC4)c1	0.7	/	/	0.721	/	/	-8.7%	/	/
3	COc1ccc(CNC(=O)[C@H](NC(=O)C2CCN(C(=O)[C@@H](N)CCSC)CC2)C(C)C)cc1	-1.9	/	/	0.73	-46.0	2.8	/	/	i
4	C=CCn1c(-c2cccnc2Cl)nc2cc(Cl)c(Cl)cc21	5.4	/	/	0.699	-32.8	/	1.0%	/	/
5	CC(C)(C)c1ccc(S(=O)(=O)NC(=O)C2(C)CCN2C(=O)Cc2ccc(Cl)cc2Cl)cc1 (stereo not drawn)	0.4	1.2	-13.6	/	/	-2.7	/	-27.9	i
6	CCOC(=O)c1sc(=NC(=O)COc2ccc(Cl)cc2)n(C)c1C	-1.2	-3.7	7.0	0.715	-3.3	2.7	-15.0%	8.1	i
7	COc1ccc(-c2nc(CN3CCC(C(=O)NCC4CCCO4)CC3)c(C)o2)cc1OC (stereo not drawn)	4.4	-1.4	-1.6	0.684	-9.9	-1.2	-10.8%	12.7	i
8	COc1ccc(N(CC(=O)Nc2cccc(C(F)(F)F)c2)S(=O)(=O)c2c(C)[nH]c(=O)[nH]c2=O)cc1	-1.5	-5.7	-9.0	0.595	0.3	0.6	-3.5%	-11.6	i
9	Cc1nnc(N2C(=O)C(O)=C(C(=O)c3ccco3)C2c2cccc([N+](=O)[O-])c2)s1 (stereo not drawn)	-4.0	5.3	10.7	0.714	/	1.4	/	13.2	i
10	CC(C)c1cc(N2CCC(=O)NC2=O)cc(C(=O)O)c1O	3.7	/	/	0.678	0.1	/	10.6%	/	/
11	COc1ccc([N+](=O)[O-])cc1NC(=O)COC(C)=O	-3.0	1.0	10.3	0.623	-30.9	-1.9	-0.7%	16.7	i
12	Cc1ccc(-c2csc(/C=C3/SC(C)C(=O)N3CC(=O)Nc3ccccc3F)n2)cc1 (stereo not drawn)	4.0	4.8	-2.2	0.735	/	1.0	-11.9%	0.1	i
13	COc1ccc(/C=C/C(=O)OCC(=O)NCc2ccco2)c(OC)c1	1.0	7.7	-21.3	0.675	-0.8	0.2	-7.9%	-22.5	i
14	COc1ccc2c3c([nH]c2c1)[C@@H](CO)N(C(=O)C1CCC1)CC31CCN(C(=O)c2ccccn2)CC1	/	1.2	-2.8	/	/	-4.0	/	-2.2	i
15	COc1ccc(-c2nnc(NC(=O)C(C)C)s2)c(OC)c1	-0.5	-6.7	2.9	0.738	/	-4.7	-11.7%	5.4	i
16	Cc1ccccc1N(CC(=O)Nc1ccccc1C(=O)O)S(C)(=O)=O	-5.7	/	/	0.706	-1.2	/	-2.3%	/	/
17	CCCCCC(=O)NC(=S)Nc1ccc(NC(=O)c2ccco2)cc1	-1.4	3.5	-14.8	0.678	-4.3	-3.7	/	-7.2	i
18	c1cc2c(cc1C1=NNC(=NC3CC3)SC1)OCCO2	5.3	2.4	-2.7	0.598	24.2	2.4	6.8%	-1.4	i
19	O=S(Cc1ccccc1)Cc1ccccc1	-3.3	/	/	/	/	-1.4	/	/	i
20	CCC(=O)N1CCc2cc(S(=O)(=O)NCCC(=O)NCc3ccccc3Cl)ccc21	-0.3	-3.8	4.0	0.717	-0.2	3.0	/	-6.1	i
21	COc1ccc(-c2cnc3c(c2)C(=O)N([C@@H](C)CO)C[C@@H](C)[C@@H](CN(C)C(=O)Cc2ccccc2)O3)cc1	/	-3.0	-2.8	/	/	-2.8	/	-6.6	i
22	Cc1ccc(C(=O)NCCCNC(=O)COc2ccc(C)c(C)c2)cn1	-2.1	-1.3	-24.4	0.623	1.8	-5.1	/	-33.4	i
23	CCCCN(C(=O)CCNC(=O)NC12CC3CC(CC(C3)C1)C2)c1c(N)n(CCCC)c(=O)[nH]c1=O	-0.8	2.0	-3.8	0.672	-9.4	1.5	7.6%	-15.2	/
24	COc1ccc(NC(=O)N(C)C[C@@H]2Oc3ccc(NC(=O)C4CCCCC4)cc3C(=O)N([C@@H](C)CO)C[C@H]2C)cc1	/	-3.4	-0.1	/	/	-2.6	/	-3.3	i
25	CCOC(=O)NC(=O)/C(C#N)=N/Nc1ccc(F)cc1	-2.5	/	/	/	26.6	/	12.7%	/	/
26	CC(C)NC(=O)N(C)C[C@H]1Oc2c(NC(=O)Cc3ccccc3)cccc2C(=O)N([C@H](C)CO)C[C@@H]1C	-3.4	4.2	8.4	/	-0.5	1.3	/	10.1	i
27	COC(=O)Nc1ccc(SCC(=O)c2ccccc2)cc1	-1.0	-5.1*	-25.3*	0.648	99.1*	-0.8	0.4%	-14.7*	i
28	O=C(O)c1cccnc1NC1CCCC1	-2.2	-2.7	10.5	0.672	-1.9	-1.1	9.2%	15.8	i
29	COc1ccc2nc(SC(C)C(=O)NCC(=O)Nc3ccc(F)c(F)c3F)[nH]c2c1 (stereo not drawn)	0.0	-0.2	-3.0	0.652	/	-1.0	-18.3%	-3.6	i
30	CCNC(=O)C1CCCN(C(=O)Cc2ccc3ccccc3c2)CC1 (stereo not drawn)	0.7	-2.0	1.0	/	/	-1.8	/	7.7	i
31	CCCCNC(=O)NS(=O)(=O)c1ccc(NC(=O)CCC(=O)c2cccs2)cc1	3.6	1.5	10.8	0.64	/	-2.1	-6.3%	10.1	i
32	COc1ccc(N=C(C)C2=C(O)c3ccccc3C2=O)cc1	1.3	/	/	0.702	-5.5	/	/	/	/
33	Cc1ccc(S(=O)(=O)N[C@H]2CC[C@H](CC(=O)NCCN3CCCCC3)O[C@H]2CO)cc1	/	-1.0	0.2	/	/	-0.1	/	2.5	i
34	COc1cccc(NS(=O)(=O)c2cc3[nH]c(=O)c(=O)[nH]c3cc2C)c1	1.1	1.7	9.8	0.717	-5.3	-2.0	/	4.1	i
35	C=CCC(C=C)[N+]1(CC(=O)OC)CCCCC1 (stereo not drawn)	0.9	-1.0	16.4	0.666	1.2	-0.8	/	14.2	/
36	O=C(Nc1cc(F)ccc1F)N1CCCCN2[C@H](CO)[C@@H](c3ccc(-c4cncnc4)cc3)[C@H]2C1	/	-3.3	8.3	/	/	0.4	/	7.8	i
37	Cc1cc(NC(=O)COC(=O)CCS(=O)(=O)c2ccc(C)c(C)c2)no1	3.7	-2.5	1.3	0.685	-0.5	6.1	/	3.1	i
38	Fc1ccccc1CSc1nnc(-c2cccnc2)o1	1.0	0.8	1.0	0.604	-7.8	1.1	-8.8%	-6.0	/
39	COCCN(CCOC)C(=S)Nc1ccccc1	-2.1	2.2	21.2	0.688	9.7	-3.5	-1.1%	6.1	i
40	CN(CC(=O)Nc1ccccc1C(F)(F)F)C(=O)c1cc(-c2cccs2)nn1-c1ccccc1	-1.5	0.5	3.5	0.713	2.1	0.2	-8.5%	8.9	i
41	Cc1noc(C)c1S(=O)(=O)Nc1ccc2c(c1)C(=O)N([C@@H](C)CO)C[C@H](C)[C@H](CN(C)C(=O)c1ccncc1)OCCCC[C@H](C)O2	/	-1.4	2.1	/	/	-0.7	/	6.6	i
42	CC1=CC(C)C2C(=O)N(c3ccccc3)NC(=O)C2C1 (stereo not drawn)	-0.1	2.3	7.2	0.676	1.4	2.5	-8.0%	7.9	i
43	CCSc1nnc2n1C(C)(C)Cc1ccccc1-2	-1.1	/	/	0.714	7.5	/	-0.2%	/	/
44	Nc1nccc(SCc2ccccc2)n1	-0.5	-5.0	2.1	0.643	/	0.1	-8.3%	0.0	i
45	Cc1ccc(N2CCN(S(=O)(=O)c3nnc(NC(=O)c4ccco4)s3)CC2)cc1	0.1	-6.4	1.9	0.713	97.1*	8.2	/	7.3	i
46	Cc1ccc(S(=O)(=O)N2CC[C@@H]3[C@H]2c2cc(-c4ccccc4F)ccc2N(C)[C@H]3CO)cc1	/	-0.9	1.2	/	/	-1.3	/	-1.2	i
47	COc1ccc(CCNc2cc(C)nc(N)n2)cc1OC	-2.2	1.9	7.6	0.631	-4.7	2.3	-4.2%	8.3	i
48	CCN(CC(=O)Nc1c(F)cccc1F)C(=O)CSCC(=O)Nc1cc(C)on1	-1.9	-2.3	3.3	0.659	-1.9	-1.1	0.8%	2.6	i
49	Cc1cc(=O)oc2c3c(cc(OCC(=O)NC(Cc4ccc(Cl)cc4)C(=O)O)c12)OC(C)(C)CC3 (stereo not drawn)	2.0	-0.2*	-38.5*	0.7	2.3	-1.7	/	-14.6*	i
50	Cc1cc(Cl)ccc1Oc1ncc(CN2CCN(c3ccccc3)CC2)s1	-0.2	/	/	0.742	-4.0	/	-0.1%	/	/
51	C/C(=N/OC(=O)c1cccc(Cl)c1)c1nccs1	-0.6	/	/	/	-9.3	/	5.6%	/	/
52	CC(C)(C)c1nc2ccccc2c2nnc(SCC(=O)Nc3nc4ccccc4s3)n12	1.4	0.9	4.9	0.706	-2.6	/	-0.1%	2.2	/
53	CC(NCc1cccn1C)c1ccccc1 (stereo not drawn)	-1.6	/	/	0.742	31.5	/	21.0%	/	/
54	COc1ccc(-n2cnnc2SCC(=O)c2cc(C)n(Cc3cccs3)c2C)cc1	6.2	/	/	0.745	1.5	/	-1.1%	/	/
55	CCOc1ccc(CCNC(=O)CCc2nc3ccccc3[nH]2)cc1OCC	2.5	-0.9*	-19.8*	0.711	-4.5	-1.2	-6.1%	-4.1*	i
56	CCN(CC)S(=O)(=O)c1ccc(OC)c(NC(=O)CC2CCCC2)c1	2.1	-0.4	-2.4	0.651	-5.9	-1.5	/	5.8	i
57	C[C@@H]1CN([C@@H](C)CO)C(=O)c2cccc(NS(=O)(=O)c3cccs3)c2O[C@@H]1CN(C)Cc1ccc(-c2ccccc2)cc1	/	4.6	10.8	/	/	-0.9	/	-8.4	i

One compound at a time, from the list above. Screens in order: HNF4A DNA FP | rRNA inh HTS RFP | rRNA inh HTS | Ecoli growth | ALR H2O2 inh | AF4-AF9 inh | Vif TR-FRET | rRNA inh HTS OD600 | FGF22 binding
`Cc1ccc(N2CCN(S(=O)(=O)c3nnc(NC(=O)c4ccco4)s3)CC2)cc1` in the list: 0.1 | -6.4 | 1.9 | 0.713 | 97.1* | 8.2 | / | 7.3 | i
`C/C(=N/OC(=O)c1cccc(Cl)c1)c1nccs1` in the list: -0.6 | / | / | / | -9.3 | / | 5.6% | / | /
